D2 potentiator – potentiates the human D2 dopamine receptor allosterically. P14416. DiscoveRx D2 beta-arrestin cells, luminescence, 90 min; 100% = 57 uM dopamine signal. potentiation, % (test concentration not listed). 360,000 tested, 0.23% active. AID 624464; active = potentiation of 50% or more; inconclusive = 30% to 50%; inactive = 30% or less;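 also: compound concentration not given in the record; tested on top of an EC20 dose of dopamine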
Target sequence (P14416 whole entry, looked up): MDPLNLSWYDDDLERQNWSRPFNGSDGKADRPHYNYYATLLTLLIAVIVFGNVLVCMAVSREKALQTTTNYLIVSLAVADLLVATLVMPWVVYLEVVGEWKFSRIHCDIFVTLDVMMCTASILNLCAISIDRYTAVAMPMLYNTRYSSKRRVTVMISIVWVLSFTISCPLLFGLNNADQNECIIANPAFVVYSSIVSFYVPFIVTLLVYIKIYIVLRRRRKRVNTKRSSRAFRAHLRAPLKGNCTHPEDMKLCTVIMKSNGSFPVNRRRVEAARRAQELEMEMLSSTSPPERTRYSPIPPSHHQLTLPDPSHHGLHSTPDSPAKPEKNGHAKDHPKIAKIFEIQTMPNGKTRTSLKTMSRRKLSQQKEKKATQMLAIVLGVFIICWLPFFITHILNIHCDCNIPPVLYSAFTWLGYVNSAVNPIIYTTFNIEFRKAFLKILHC
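D2 cells co-treated with compound plus 50 nM dopamine (EC20) for 90 min at 37 deg C to detect potentiation. Beta-arrestin recruitment was read as enzyme-fragment luminescence after 1 h at ambient temperature. Full response was set by 57 uM dopamine.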
TRPML1 ag – human mucolipin-1 channel agonism. TRPML1-expressing cells, Ca2+ dye fluorescence, FDSS; host cell line not named in the record; reference of the full effect not given here. Q9GZU1. AID 624414. activation, % (concentration not given with the values). 410,000 tested, 0.12% active; in the data active = activation above about 50%; inconclusive = about 30% to 50%; inactive = below about 30%; also: 0% is about no effect; the text of the record puts the active cut at 80%
Target sequence (Q9GZU1 whole entry, looked up): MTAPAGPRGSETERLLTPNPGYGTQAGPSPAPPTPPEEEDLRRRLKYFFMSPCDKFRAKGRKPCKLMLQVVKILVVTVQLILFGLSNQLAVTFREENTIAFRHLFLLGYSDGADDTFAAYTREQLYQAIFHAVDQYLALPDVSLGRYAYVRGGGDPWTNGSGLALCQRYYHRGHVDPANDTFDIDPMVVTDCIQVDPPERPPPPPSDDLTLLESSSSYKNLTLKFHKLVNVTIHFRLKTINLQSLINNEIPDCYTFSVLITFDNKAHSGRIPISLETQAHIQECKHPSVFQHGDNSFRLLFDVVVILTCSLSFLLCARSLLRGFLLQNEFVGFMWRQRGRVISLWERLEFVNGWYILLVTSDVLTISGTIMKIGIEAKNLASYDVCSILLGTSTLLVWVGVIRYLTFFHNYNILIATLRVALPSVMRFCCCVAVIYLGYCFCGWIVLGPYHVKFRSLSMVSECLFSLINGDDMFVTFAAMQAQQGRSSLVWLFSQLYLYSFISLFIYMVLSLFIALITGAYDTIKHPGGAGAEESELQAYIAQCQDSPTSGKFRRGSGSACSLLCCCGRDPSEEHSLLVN
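In this qHTS format, compounds were pin-transferred onto Ca8-dye-loaded TRPML1-DL cells induced with Tet overnight, and intracellular Ca2+ fluorescence was recorded kinetically for 110 s after a 10 s baseline. A subsequent 4uM final 54-4 (EC80) addition followed by a second 110 s read served as the antagonist phase.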
D2 agonist – agonists of human D2 dopamine receptor (beta-arrestin) | activation, % (concentration not given with the values) | DiscoveRx PathHunter D2 beta-arrestin, luminescence, 90 min; 100% = 57 uM dopamine signal | AID 624465 | 360,000 tested, 0.084% active | P14416; in the data active = activation above about 40%; inconclusive = about 15% to 40%; inactive = below about 15%; also: compound concentration not given in the record; the text of the record calls up to 30% inactive
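DiscoveRx PathHunter D2 beta-arrestin cells (2,100/well) attached overnight, then compound-stimulated 90 min at 37 C in HBSS/10 mM HEPES/0.1% Tween-20 buffer; beta-galactosidase complementation read by luminescence after 1 h at ambient temperature. Dopamine 57 uM final (EC100) as control.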
TRPML1 inh – human mucolipin-1 channel inhibition; TRPML1-inducible cells, Ca2+ dye fluorescence, FDSS; hits give low values; inhibition of EC80 agonist-evoked calcium signal; activity change, negative = inhibition, % (concentration not given with the values); 390,000 tested, 0.02% active; in the data active means activity change below about -50%; inconclusive means about -30% to -50%; inactive means above about -30%;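 also: stimulus is agonist 54-4 at its EC80 concentration; % is scaled to controls: 0 for no effect and ±100 for the full control effect; compound concentration not given in the record; the text of the record puts the active cut at -80%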
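Tet-induced TRPML1-DL cells loaded with Ca8 no-wash calcium dye were read kinetically on FDSS. Compound addition was followed by EC80 agonist 54-4 (4 uM final); inhibition was read over 110 s.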
Six1-Eya2 blk – inhibitors of human Six1/Eya2 interaction | AlphaScreen GST-Six1/His-Eya2 binding, biochemical; hits give low values; control for the full effect not named in the record | 360,000 tested, 0.56% active | activity change, % (concentration not given with the values); in the data active = activity change below about -65%; inconclusive = about -30% to -65%; inactive = above about -30%; also: % is scaled to controls: 0 for no effect and ±100 for the full control effect
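Compounds are tested against tagged Six1 and Eya2 proteins bridged by glutathione donor and nickel acceptor beads; after a one-hour incubation at 37 °C without light, AlphaScreen emission is recorded.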
PINK1 modulator – modulators of PINK1 expression; PINK1 immunofluorescence, high-content cytometry, 24 h; Potency, µM (highest dose often 76.6 µM), for inactives: top-dose activation (PINK1 increase), most hits filed as activators; 410,000 tested, 0.2% active; AID 624263; active = well fitted activation curve with a large enough effect; inconclusive = small, poorly fitted or top-dose-only effect; inactive = flat fitted curve, though single readings scatter; cell line not stated here;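 also: potency is read from the fitted curve at half-maximal effect; % of control where 0% means no effect; nearly all actives have a fitted effect of over 65% in size; a mitochondrial uncoupler was the plate control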
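Compound titrations (5 concentrations, 24 h) on a stable cell line; DMSO and CCCP controls. Endpoint: fixed-cell PINK1 immunofluorescence with mitochondrial, cell and nuclear markers, scanned by microplate cytometer.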
The depositor's hits bear a star; & = joins results of further samples; [ ] = remark or other dose.

Start of the listing, in advance:
What do the screens show for `COc1ccc2oc(C(=O)OCC(=O)Nc3cc(S(=O)(=O)N4CCOCC4)ccc3C)c(C)c2c1`?
D2 potentiator: -4; TRPML1 ag: -0.8; D2 agonist: 2.6; TRPML1 inh: 7; Six1-Eya2 blk: -12; PINK1 modulator: 13%

Results for O=C(NCc1ccccc1)C1Cc2c(-c3ccc(Cl)cc3)ccnc2O1 (stereo unspecified) ?
D2 potentiator: -15; TRPML1 ag: 0.8; D2 agonist: -1.4; TRPML1 inh: 30; Six1-Eya2 blk: 0; PINK1 modulator: -0.2%

What do the screens show for `O=C(NC(=S)N1CCCCC1c1cccnc1)c1ccc(F)cc1` (stereo unspecified)?
D2 potentiator: -12; TRPML1 ag: -0.9; D2 agonist: 0.5; TRPML1 inh: -2; Six1-Eya2 blk: 3; PINK1 modulator: 0.0%

Results, from the first entry:
What do the screens show for `COc1ccc2oc(C(=O)OCC(=O)Nc3cc(S(=O)(=O)N4CCOCC4)ccc3C)c(C)c2c1`?
D2 potentiator: -4; TRPML1 ag: -0.8; D2 agonist: 2.6; TRPML1 inh: 7; Six1-Eya2 blk: -12; PINK1 modulator: 13%

Results for O=C(NCc1ccccc1)C1Cc2c(-c3ccc(Cl)cc3)ccnc2O1 (stereo unspecified) ?
D2 potentiator: -15; TRPML1 ag: 0.8; D2 agonist: -1.4; TRPML1 inh: 30; Six1-Eya2 blk: 0; PINK1 modulator: -0.2%

What do the screens show for `O=C(NC(=S)N1CCCCC1c1cccnc1)c1ccc(F)cc1` (stereo unspecified)?
D2 potentiator: -12; TRPML1 ag: -0.9; D2 agonist: 0.5; TRPML1 inh: -2; Six1-Eya2 blk: 3; PINK1 modulator: 0.0%

Results for Cc1ccc(NC(=O)c2cc(CN3CCOCC3)on2)cc1Cl ?
TRPML1 ag: 0.6; TRPML1 inh: -18; PINK1 modulator: -1.6%

What do the screens show for `Cc1cc(C(=O)N(C)CC(=O)Nc2ccc(Cl)c(C(F)(F)F)c2)no1`?
D2 potentiator: 0; TRPML1 ag: -0.7; D2 agonist: -0.6; TRPML1 inh: 5; Six1-Eya2 blk: 4; PINK1 modulator: 4.5%

Results for CN1C(C(=O)NCc2ccc(OC(F)(F)F)cc2)CC2Cn3c(nc4cc(Cl)c(Cl)cc43)C21 (stereo unspecified) ?
D2 potentiator: -10; TRPML1 ag: 0.7; D2 agonist: -3.1; TRPML1 inh: 4; Six1-Eya2 blk: -1; PINK1 modulator: -0.7%

What do the screens show for `O=S(=O)(NCc1ccccc1)c1ccc(NC(=S)NCc2ccco2)cc1`?
D2 potentiator: -14; TRPML1 ag: 1.4; D2 agonist: -1.8; TRPML1 inh: -7; Six1-Eya2 blk: 4; PINK1 modulator: 3.9%

How did O=C(CN1C(=O)NC2(CCc3ccccc3C2)C1=O)NCC(F)(F)F (stereo unspecified) do in these assays?
D2 potentiator: -10; TRPML1 ag: 1.1; D2 agonist: -2.7; TRPML1 inh: 19; Six1-Eya2 blk: -1; PINK1 modulator: 0.0%

Results for Cc1ccc(-c2csc3ncn(/N=C/N(C)C)c(=O)c23)o1 ?
D2 potentiator: -15; TRPML1 ag: -0.5; D2 agonist: -4.2; TRPML1 inh: -3; Six1-Eya2 blk: -12; PINK1 modulator: 0.0%

Results for CN(C(=O)CSc1nnc(-c2cccnc2)o1)C1CCCCC1 ?
D2 potentiator: -2; TRPML1 ag: 1.7; D2 agonist: 2.8; TRPML1 inh: 27; Six1-Eya2 blk: 6; PINK1 modulator: 2.1%

Reprinted at random: two compounds from above.
What do the screens show for `O=C(NC(=S)N1CCCCC1c1cccnc1)c1ccc(F)cc1` (stereo unspecified)?
D2 potentiator: -12; TRPML1 ag: -0.9; D2 agonist: 0.5; TRPML1 inh: -2; Six1-Eya2 blk: 3; PINK1 modulator: 0.0%

What do the screens show for `Cc1cc(C(=O)N(C)CC(=O)Nc2ccc(Cl)c(C(F)(F)F)c2)no1`?
D2 potentiator: 0; TRPML1 ag: -0.7; D2 agonist: -0.6; TRPML1 inh: 5; Six1-Eya2 blk: 4; PINK1 modulator: 4.5%

Later entries.
What do the screens show for `C=C(C)COc1ccc(-c2nc(N)ncc2-c2ccccc2OC)c(O)c1`?
D2 potentiator: -7; TRPML1 ag: 0.2; D2 agonist: -4.5; TRPML1 inh: -10; Six1-Eya2 blk: 4; PINK1 modulator: -0.9%

Results for O=C(N/N=C/c1ccccn1)c1sc2ccccc2c1Cl ?
D2 potentiator: -21; TRPML1 ag: 0.1; D2 agonist: -13; TRPML1 inh: -21; Six1-Eya2 blk: inconclusive; PINK1 modulator: -1.7%

Results for Cc1cccc(C)c1C(=NCCN(C)C)c1ccccc1 ?
D2 potentiator: -17; TRPML1 ag: 1.8; D2 agonist: -4.6; TRPML1 inh: -4; Six1-Eya2 blk: 4; PINK1 modulator: -1.7%

What do the screens show for `CCc1cccc(NC(=O)CSc2n[nH]c(-c3ccccc3Cl)n2)c1`?
TRPML1 ag: 0.8; TRPML1 inh: -20; PINK1 modulator: 1.6%

How did O=c1c2cnn(-c3ccccc3)c2nnn1/N=C/c1cccnc1 do in these assays?
D2 potentiator: -3; TRPML1 ag: 0.4; D2 agonist: -2.3; TRPML1 inh: 3; Six1-Eya2 blk: 3; PINK1 modulator: -2.9%

How did CC1CCN(S(=O)(=O)c2cc3c4c(c2)C(C)C(=O)N4CCC3)CC1 (stereo unspecified) do in these assays?
D2 potentiator: -1; TRPML1 ag: -0.2&5.5; D2 agonist: -0.9; TRPML1 inh: 5&6; Six1-Eya2 blk: 2; PINK1 modulator: -0.2%&1.7%

What do the screens show for `COc1ccc2c(Sc3ccccc3)c(C(=O)NCCN(C)C)[nH]c2c1`?
TRPML1 ag: 0.0; TRPML1 inh: -14; PINK1 modulator: 4.2%

What do the screens show for `CCCCc1cc(=O)oc2cc(C)cc(OCC(=O)O)c12`?
D2 potentiator: -6; TRPML1 ag: -0.7; D2 agonist: -2.6; TRPML1 inh: 6; Six1-Eya2 blk: -2; PINK1 modulator: 18%[38.3 µM]

How did COc1ncnc(NS(=O)(=O)c2ccc(N)cc2)c1OC do in these assays?
D2 potentiator: -6; TRPML1 ag: 0.3; D2 agonist: -5.5; TRPML1 inh: -6; Six1-Eya2 blk: 5; PINK1 modulator: 2.5%

Results for Cc1ccc(F)c(S(=O)(=O)NC(=O)C2(C)CCN2C(=O)CCc2ccccc2)c1 (stereo unspecified) ?
D2 potentiator: 1; TRPML1 ag: 1.3; D2 agonist: -2.0; TRPML1 inh: 43; Six1-Eya2 blk: -1; PINK1 modulator: -1.0%

How did COCCNC(=O)CSc1nc2cc3c(cc2c(=O)n1CCCC(=O)NCCc1ccc(OC)c(OC)c1)OCO3 do in these assays?
D2 potentiator: -3; TRPML1 ag: -0.7&1.9; D2 agonist: 1.7; TRPML1 inh: -22&-17; Six1-Eya2 blk: 3; PINK1 modulator: 0.4%&-0.5%

What do the screens show for `CCOC(=O)CNC(=O)COc1coc(CN2CCN(c3ccc(F)cc3)CC2)cc1=O`?
D2 potentiator: -4; TRPML1 ag: 0.5; D2 agonist: -0.7; TRPML1 inh: 45; Six1-Eya2 blk: 2; PINK1 modulator: -0.2%

What do the screens show for `Cc1cc(O)ccc1-c1cccc2nccn12`?
D2 potentiator: -9; TRPML1 ag: 0.4; D2 agonist: -4.0; TRPML1 inh: -4; Six1-Eya2 blk: -6; PINK1 modulator: -0.5%

How did COc1ccc(S(=O)(=O)Nc2cccc3c2O[C@H](CN(C)Cc2ccc(Cl)c(Cl)c2)[C@@H](C)CN([C@H](C)CO)C3=O)cc1 do in these assays?
D2 potentiator: 3; TRPML1 ag: -0.2; D2 agonist: -0.3; TRPML1 inh: -12; Six1-Eya2 blk: -8; PINK1 modulator: 1.3%

How did CCCc1noc(-c2cccc([N+](=O)[O-])c2)n1 do in these assays?
D2 potentiator: 0; TRPML1 ag: 0.3; D2 agonist: -0.4; TRPML1 inh: -1; Six1-Eya2 blk: -9; PINK1 modulator: 0.2%

What do the screens show for `COC(=O)C1=C(O)CSC1=Nc1ccc(C)cc1`?
D2 potentiator: -6; TRPML1 ag: 0.5; D2 agonist: 3.4; TRPML1 inh: 3; Six1-Eya2 blk: 2; PINK1 modulator: 0.4%

Results for O=C(c1ccccc1)C(CN1CCCCC1)c1ccccc1 (stereo unspecified) ?
D2 potentiator: -29; TRPML1 ag: 1.0; D2 agonist: -8.8; TRPML1 inh: -2; Six1-Eya2 blk: 0; PINK1 modulator: -1.5%

What do the screens show for `O=C(COC(=O)c1cc[n+]([O-])cc1)Nc1ccc(SC(F)F)cc1`?
D2 potentiator: 0; TRPML1 ag: 0.0; D2 agonist: -1.2; TRPML1 inh: -25; Six1-Eya2 blk: 5; PINK1 modulator: 0.6%

What do the screens show for `COc1ccsc1NC(=O)OCc1ccc(Cl)cc1`?
D2 potentiator: -19; TRPML1 ag: 3.8; D2 agonist: -7.8; TRPML1 inh: 1; Six1-Eya2 blk: -4; PINK1 modulator: 1.3%

What do the screens show for `Cc1ccc(CNC(=O)c2cc3c(=O)n(Cc4cccnc4)ccc3nc2C)cc1`?
TRPML1 ag: 0.8; TRPML1 inh: -4; PINK1 modulator: 0.5%

How did COC(=O)CN1C(=O)C2(OCCCO2)c2ccccc21 do in these assays?
D2 potentiator: 6; TRPML1 ag: 0.4; D2 agonist: 1.9; TRPML1 inh: 4; Six1-Eya2 blk: 5; PINK1 modulator: -1.2%[38.3 µM]

How did N/C(=N\OC(=O)c1ccccc1)C(C(=O)NOC(=O)c1ccccc1)C1CCCCC1 (stereo unspecified) do in these assays?
D2 potentiator: 9; TRPML1 ag: 0.1; D2 agonist: 15; TRPML1 inh: 2; Six1-Eya2 blk: 1; PINK1 modulator: -4.5%

Results for Cc1cccc(COc2ccccc2/C=N/Nc2ccc([N+](=O)[O-])cc2)c1 ?
D2 potentiator: 3; TRPML1 ag: 2.0; D2 agonist: -3.3; TRPML1 inh: 20; Six1-Eya2 blk: 11; PINK1 modulator: inconclusive

What do the screens show for `CC(=O)c1ccc(N2Cc3ccccc3C2=NC(=O)c2cccs2)cc1`?
D2 potentiator: -2; TRPML1 ag: -0.8; D2 agonist: -3.3; TRPML1 inh: -2; Six1-Eya2 blk: -3; PINK1 modulator: 2.6%

What do the screens show for `O=C(C1CCN(C2CCN(C/C=C/c3ccccc3)CC2)CC1)N1CCOCC1`?
D2 potentiator: -5; TRPML1 ag: -0.5; D2 agonist: -3.9; TRPML1 inh: 22; Six1-Eya2 blk: 3; PINK1 modulator: 0.4%

Results for O=C(CSc1nc(C(F)(F)F)cc(=O)[nH]1)N1CCCC1 ?
D2 potentiator: 4; TRPML1 ag: 0.3; D2 agonist: -2.0; TRPML1 inh: 1; Six1-Eya2 blk: 5; PINK1 modulator: 0.2%

What do the screens show for `CC(C)CC(NS(=O)(=O)c1ccccc1S(=O)(=O)NC(CC(C)C)C(=O)O)C(=O)O` (stereo unspecified)?
D2 potentiator: 1; TRPML1 ag: -0.3; D2 agonist: 0.9; TRPML1 inh: -1; Six1-Eya2 blk: 5; PINK1 modulator: 1.6%

Results for COCCn1c(SCc2nc3ccccc3s2)nc2ccccc21 ?
D2 potentiator: -2; TRPML1 ag: 1.7; D2 agonist: 1.1; TRPML1 inh: 12; Six1-Eya2 blk: 5; PINK1 modulator: 0.4%[38.3 µM]

Compound activity deposited in PubChem by National Center for Advancing Translational Sciences (NCATS).
